VDR inh = vitamin D3 receptor (human) inhibition | VDR-SRC2-3 peptide fluorescence polarization, 2 h | Potency, µM, for the others: max response, negative = inhibition, hits mostly inhibitors | 0.93% of 400,000 active; active = well fitted inhibition curve with a large enough effect; inconclusive = small, poorly fitted or top-dose-only effect, or another doubt; inactive = no such curve, though single readings can be large or run the other way; also: series mostly up to about 120 µM
Target sequence (P11473 whole entry, looked up): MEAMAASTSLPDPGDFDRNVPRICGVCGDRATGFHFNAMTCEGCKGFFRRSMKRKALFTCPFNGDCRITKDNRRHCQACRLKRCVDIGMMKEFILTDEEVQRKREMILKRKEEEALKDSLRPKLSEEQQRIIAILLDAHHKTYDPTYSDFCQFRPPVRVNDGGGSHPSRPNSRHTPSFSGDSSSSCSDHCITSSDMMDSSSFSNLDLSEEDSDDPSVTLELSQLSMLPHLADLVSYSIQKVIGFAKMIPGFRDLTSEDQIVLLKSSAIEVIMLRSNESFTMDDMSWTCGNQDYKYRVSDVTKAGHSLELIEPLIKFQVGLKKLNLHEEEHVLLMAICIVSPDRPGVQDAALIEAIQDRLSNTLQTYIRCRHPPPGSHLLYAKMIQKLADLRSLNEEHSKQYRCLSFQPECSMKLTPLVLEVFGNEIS
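FP read-out; VDR + SRC2-3 coactivator peptide; 23 nl compound by pintool; 2 h RT incubation; reagents held at 4 deg C, protected from light.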
* hit, by the source's call; ? = inconclusive; [ ] = another dose, or the depositor's remark. % is scaled to controls: 0 for no effect and ±100 for the full control effect; potency is read from the fitted curve at half-maximal effect. A portion of the library. The share of hits here may be higher or lower than overall.

SMILES	VDR inh
CC(C)COc1ccc(-c2nn(-c3ccccc3)cc2C(=O)Nc2nccs2)cc1	-2.7%
Cc1c(NC(=O)c2ccc([N+](=O)[O-])o2)cccc1-c1nc2ncccc2o1	-2.7%
COc1cc2c(cc1OC)CN(C(=O)CSc1nnc3scc(-c4ccccc4)n13)CC2	-16.0%
COc1ccc(OC)c(Cc2nnc(CCC(=O)NC3CCCCC3)o2)c1	-8.5%
COc1ccc(NS(=O)(=O)c2ccc(N3CCN(CCO)CC3)c([N+](=O)[O-])c2)cc1	6.5%
O=C(CO)N/N=C/c1c2ccccc2cc2ccccc12	-2.4%
COc1cccc(-c2cc(C(=O)NCc3ccco3)no2)c1	17.6%
CC(Sc1nc(-c2ccc(F)cc2)cs1)C(=O)N1c2ccccc2CC1C (stereo unspecified)	-12.6%
CC(=O)c1ccc(NC(=S)NC2CCCC(C)C2C)cc1 (stereo unspecified)	8.4%
CCn1c(=O)c(C(=O)NCc2ccccn2)c(O)c2ccccc21	20.2%
Cc1nc(Cl)c(C(=O)NC(=O)NCc2ccccc2)c(C)c1Cl	-19.3%
COc1cccc(NC(=O)CSc2nc3c(sc4ccccc43)c(=O)n2CCCN2CCCC2)c1	-6.4%
CC(=O)c1sc2nc(CSc3nncn3C)[nH]c(=O)c2c1C	-13.9%
CCOc1ccc(CC(=O)Nc2c(C(N)=O)oc3ccccc23)cc1OCC	-10.2%
Cc1cc(C)c(NC(=O)CSc2nc3ccc(N4C(=O)c5ccccc5C4=O)cc3s2)c(C)c1	11.4%
C=C(C)CSc1[nH]c(=O)cc(C)c1C#N	-0.6%
CC1(C)CC(=O)C2=C(C1)Nc1ccccc1N(C(=O)C1CC1)C2c1ccco1 (stereo unspecified)	-22.7%
COc1ccccc1C(C)NC(=O)CCNC(=O)c1ccc(Cl)cc1 (stereo unspecified)	11.1%
CCOC(=O)C1(CCCc2ccccc2)CCN(C(=O)CCCn2cncn2)CC1	-7.2%
O=C(Nc1ccc(F)cc1)N1CCN2C(=O)c3ccccc3C12c1ccccc1 (stereo unspecified)	-15.0%
O=C(CSc1nc(-c2ccco2)cc(C(F)(F)F)n1)Nc1ccc(C(=O)N2CCCCC2)cc1	-6.2%
CC(C)c1onc(C(=O)NC(C)c2ccccc2)c1[N+](=O)[O-] (stereo unspecified)	-14.6%
O=C(Nc1ccc(Cl)cc1)C1C2C=CC3(O2)C1C(=O)N(CCN1CCCCC1)C3C(=O)NC1CCCCC1 (stereo unspecified)	5.4%
Cc1cc2nn(-c3ccc(F)cc3)nc2cc1NC(=O)c1cccc([N+](=O)[O-])c1C	14.5%
CC(NCC(O)COCc1cccs1)C1CC2CCC1C2 (stereo unspecified)	14.3%

Sorted by heavy-atom count (highest first): some entries from above.
SMILES	VDR inh
COc1cccc(NC(=O)CSc2nc3c(sc4ccccc43)c(=O)n2CCCN2CCCC2)c1	-6.4%
CCOc1ccc(CC(=O)Nc2c(C(N)=O)oc3ccccc23)cc1OCC	-10.2%
COc1ccccc1C(C)NC(=O)CCNC(=O)c1ccc(Cl)cc1 (stereo unspecified)	11.1%
CC(C)c1onc(C(=O)NC(C)c2ccccc2)c1[N+](=O)[O-] (stereo unspecified)	-14.6%
O=C(CO)N/N=C/c1c2ccccc2cc2ccccc12	-2.4%

More entries.
SMILES	VDR inh
CS(=O)(=O)c1nc(-c2ccccc2)cc(-c2ccccc2)c1C#N	-1.1%
O=C(NNC(=O)C1C2CCCCC21)c1coc(=O)c(Br)c1 (stereo unspecified)	-27.8%
NCCCn1c(C(=O)c2ccc(Cl)cc2)c2ccc([N+](=O)[O-])cc2[n+]1[O-]	7.4%
Cc1cc(NC(=O)c2ccc3c(c2)C(=O)N(CCC(C)C)C3=O)no1	-11.3%
Cc1ccc(Cl)cc1NC(=O)COC(=O)CC(C)(C)CC1=NS(=O)(=O)c2ccccc2N1	12.8%
O=C(c1ccccc1)N1CCN(C(=O)c2ccc(OC(F)(F)F)cc2)CC1	-6.9%
CN(C)C(CNC(=O)CNC(=O)Cc1cccc2ccccc12)c1ccccc1 (stereo unspecified)	-9.2%
O=C(CCNC(=O)Cn1ccc2ccccc2c1=O)NCCc1ccc(Cl)cc1	-6.2%
COC(=O)c1cc(C(=O)OCC(=O)NC(=O)c2ccccc2)cc([N+](=O)[O-])c1	14.2%
O=C(Nc1cccc(F)c1)N1CC2(CCN(C(=O)c3ccco3)CC2)C1	-22.1%
CCOC(=O)c1noc2ncn(CC(=O)Nc3ccc(C)c(F)c3)c(=O)c12	12.6%
CCC[C@@H](CN1CCC[C@H]1CN1C(N)=NC[C@H]1C(C)C)N1C[C@@H]([C@H](C)CC)N(CCCC2CCCC2)C1=N	10.3%
NS(=O)(=O)c1ccc(CCNC(=O)CCCC2=NS(=O)(=O)c3ccccc3N2)cc1	8.7%
COCCNC(=O)Cn1c(=O)n(Cc2ccc(C(=O)NCc3ccco3)cc2)c(=O)c2ccccc21	-18.2%
COc1ccc(-c2c3c(nc4sc(C(=O)Nc5ccc(Cl)cc5)c(N)c24)CC(C)(C)CC3=O)cc1	4.6%
CC(=O)N(CC1CCCO1)c1nnc(-c2cnccn2)s1 (stereo unspecified)	5.1%
CCN(C(=O)COC(=O)c1cc(S(=O)(=O)Nc2c(C)n(C)n(-c3ccccc3)c2=O)ccc1Cl)C1CCCCC1	2.6%
Cc1nc2ccccc2n1CC(O)COc1ccc(C(=O)O)cc1 (stereo unspecified)	11.0%
Cc1cc(C)c(S(=O)(=O)NCC(=O)NCc2cc(=O)n(C)c(=O)n2C)c(C)c1	-10.1%
CCc1cccc(NC(=O)C(Cc2ccccc2)NS(=O)(=O)c2ccc3c(c2)c(=O)n(C)c(=O)n3C)c1 (stereo unspecified)	-13.1%
Nc1c(C(=O)NCC2CCCO2)c2nc3ccccc3nc2n1/N=C/c1ccncc1 (stereo unspecified)	-0.2%
C=CCOc1ccc(S(C)(=O)=O)cc1	-0.2%
CCN=C1S/C(=C\c2cc(OCC)c(O)cc2Br)C(=O)N1CC	-5.3%
COc1ccc(C2CC(c3ccc(Br)cc3)=NN2C(=O)c2cccnc2)cc1 (stereo unspecified)	-11.0%
CCOC(=O)/C(N=Nc1ccc(F)cc1)=C(/O)c1ccc([N+](=O)[O-])cc1	-8.1%
Cc1cc(C)c(C)c(C(=O)C(=O)c2ccccc2)c1	-18.4%
CCOC(=O)c1cc(CC)sc1NC(=O)C(c1ccccc1)c1ccccc1	-11.3%
C[C@@H](NC(=O)c1[nH]cnc1C(=O)Nc1ccc(Cl)cc1)c1ccccc1	-5.9%
COc1ccc(/C(N)=N/OC(=O)C2CCC(=O)N2S(=O)(=O)c2ccc(C)cc2)cc1 (stereo unspecified)	-12.8%
OCCc1ccc(O)cc1	21.6%
CCCOCC(O)CC(CC)C(=O)NNC(=S)Nc1ccccc1 (stereo unspecified)	-12.5%
CC1CC(C)(C)NCc2ccccc21 (stereo unspecified)	-6.0%
O=C1CC(C(=O)N2CCN(Cc3ccccc3)CC2)CN1Cc1ccccc1 (stereo unspecified)	10.4%
Cc1cccc(N2C(=O)C3C4CC(C(Br)C4Br)C3C2=O)n1 (stereo unspecified)	-8.3%
N/C(=N\OC(=O)/C=C/c1ccc(Br)cc1)c1ccccn1	11.5%
CN(C)/N=C/C=C1\CCC/C(=C/c2cccs2)C1=O	?
CCOC(=O)C1CCCN(C(=O)CNC(=O)c2ccc(Br)o2)C1 (stereo unspecified)	19.3%
COc1ccc(OCc2cc(C(=O)NCCN3CCCc4ccccc43)no2)c(Cl)c1	-18.3%
C[C@H]1COC(=O)[C@H](CC(=O)OC(C)(C)C)C/C=C\C[C@@H](CC(=O)N(CCO)Cc2ccccc2)C(=O)N1	3.3%
COc1ccc(C(=O)NCc2nnc(SCC(=O)N3CCOCC3)o2)cc1OC	-8.9%
CCOC(=O)CNC(=O)CCc1nnc2ccc(N3CCC(C)CC3)nn12	?
O=C(NCCc1ccc(Cl)cc1)C(=O)NCC(c1cccs1)S(=O)(=O)c1cccs1 (stereo unspecified)	8.9%
COc1cccc2cc(C(=O)N(Cc3cccs3)Cc3cccs3)c(=O)oc12	-8.2%
COc1cccc(-c2cncnc2NCc2ccccc2OC)c1	?
CCCn1c(C)cc(C(=O)COC(=O)c2ccc[nH]c2=O)c1C	-7.1%
CC(C)CC(NC(=O)C1CCC(C)CC1)C(=O)NCCN1CCOCC1 (stereo unspecified)	-7.7%
CCCc1cc(=O)oc2cc(OC(C)C(=O)NC3CC(C)(C)NC(C)(C)C3)ccc12 (stereo unspecified)	-20.1%
Cc1ccc(Cl)cc1NC(=O)c1cnn2c(C(F)F)cc(-c3ccccc3)nc12	1.4%
CN(C)S(=O)(=O)c1cccc(C(=O)N(Cc2ccc(F)cc2)Cc2ccco2)c1	3.8%
CCOC(=O)C1CCN(c2cc(=O)n(-c3ccc(OC)cc3)c(=O)[nH]2)CC1	-14.9%

5 of the entries above in order of the VDR inh value, rising.
SMILES	VDR inh
CCOC(=O)C1CCN(c2cc(=O)n(-c3ccc(OC)cc3)c(=O)[nH]2)CC1	-14.9%
CCOC(=O)c1cc(CC)sc1NC(=O)C(c1ccccc1)c1ccccc1	-11.3%
COc1cccc2cc(C(=O)N(Cc3cccs3)Cc3cccs3)c(=O)oc12	-8.2%
CN(C)S(=O)(=O)c1cccc(C(=O)N(Cc2ccc(F)cc2)Cc2ccco2)c1	3.8%
N/C(=N\OC(=O)/C=C/c1ccc(Br)cc1)c1ccccn1	11.5%

Later entries:
SMILES	VDR inh
CCN(CC)CCNC(=O)c1cc2cc(Br)ccc2s1	0.9%
CCOC(=O)C1CCN(C(=O)CCCn2nc(C)c3c(C)n(-c4ccc(C)cc4)nc3c2=O)CC1	2.6%
Cc1cc(C)c(S(C)(=O)=O)c(S(=O)c2ccc(Cl)cc2)n1 (stereo unspecified)	11.8%
C[C@H](NC(=O)N1CCn2c1nc1ccccc12)C(=O)NCc1ccccc1	-0.3%
CSc1nnnn1CCn1nnnc1SC	-1.5%
O=C(c1cccc(S(=O)(=O)N2CCCC2)c1)N1CCCc2ccccc21	3.6%
Nc1ccc(S(=O)(=O)NC2(C(F)(F)F)NC(=O)N(c3ccccc3Cl)C2=O)cc1 (stereo unspecified)	-7.5%
O=C(COc1ccccc1)Nc1nnc(COc2ccccc2)s1	-3.2%
O=C(Nc1cccc(Cl)c1)C1CCCN(S(=O)(=O)c2cnc[nH]2)C1 (stereo unspecified)	-5.6%
CCOc1ccc(NCCC(=O)c2ccc3c(c2)OCO3)cc1	-45.1%
Cc1cc(-n2c(C)cc(C(=O)CN3C(=O)NC4(CCCCC4C)C3=O)c2C)no1 (stereo unspecified)	-10.7%
CC(C)COC(=O)Nc1ccc(C(=O)O)cc1	6.6%
CC(C)Oc1ccc(-c2nc(NCC3CCCO3)c3ccccc3n2)cc1 (stereo unspecified)	12.8%
COc1ccccc1N1CCN(CCc2n[nH]c(=S)n2-c2ccccc2)CC1	33.7%[activator]
CC(C)=CCC/C(C)=C/CNC(=O)C[C@H]1C[C@H](C(=O)N(C(C)C)C(C)C)[C@@]2(C)c3[nH]c4cc(CCC(=O)N(C)C)ccc4c3CCN2C1=O	-8.8%
COc1ccc(C)cc1C(=O)C1CC(C(=O)O)C(C)(C)C1C (stereo unspecified)	0.9%
O=C(CCc1nc2sc3c(c2c(=O)[nH]1)CCCC3)Nc1ccccc1Cl	19.3%
CCCS(=O)(=O)N1CCCC(C(=O)NCCc2ccc(OC)c(OC)c2)C1 (stereo unspecified)	-5.7%
O=C(NC1(C(F)(F)F)NC(=O)N(C2CCCCC2)C1=O)c1ccco1 (stereo unspecified)	-4.2%
COc1ccc(OC)c(S(=O)(=O)N2CCN(CC(O)COc3ccccc3)CC2)c1 (stereo unspecified)	6.9%
COc1ccc(CCNC(=O)CN2C(=O)NC(CCSC)C2=O)cc1 (stereo unspecified)	9.2%
COc1cccc(-c2nc(CS(=O)CC(=O)NCCCOC(C)C)c(C)o2)c1 (stereo unspecified)	-2.7%
Cc1ccccc1C(=O)NC=C1C(=O)OC(C)(C)OC1=O	-8.9%
COc1ccc(NC(=O)c2ccco2)cc1N	3.0%
CCN(CC)CCn1c(=S)[nH]c2cc(C(=O)NCc3ccc(C)cc3)ccc2c1=O	-1.0%
CCc1ccc(NC(=O)C/C(C)=N/NC(=O)OCc2ccc(OC)cc2)cc1	-2.3%
CCOC(=O)Cc1csc(NC(=O)COc2ccc(OC)cc2)n1	8.6%
Cc1ccc(N(C(=O)c2ccc3c(c2)OCO3)C2C=CS(=O)(=O)C2)cc1 (stereo unspecified)	0.6%
COc1cccc(NC(=O)C2CCN(S(=O)(=O)c3ccc4c(c3)OCCO4)CC2)c1	-8.6%
NC(N)=[N+]1CCc2ccccc2C1	2.2%
Brc1ccc(-c2nnc3c4ccccc4nc(N4CCOCC4)n23)cc1	-6.2%
COc1ccccc1/C=N/NC(=O)CNC(=O)c1ccc(S(=O)(=O)N2CCCC2)cc1	-7.7%
CCCCCC(=O)NC(=S)Nc1ccc(N2CCCCC2)c(Cl)c1	-1.2%
O=C(/C=C/c1ccc(OCCCF)cc1)N1CCOCC1	-0.4%
NC(=O)c1ccc2[nH]ccc2c1	14.5%
Nc1nc(SCC(=O)Nc2cccnc2Cl)n[nH]1	-18.9%
Cc1cc(C(F)(F)F)nn2cnnc12	-8.7%
O=C(O)CN(c1ccccc1F)S(=O)(=O)c1ccccc1	0.1%
c1ccc2c(c1)[nH]c1c(N3CCSCC3)ncnc12	-5.8%
Cc1cccc(C)c1Oc1nc(-c2ccccc2)ncc1S(=O)(=O)c1ccccc1	-1.0%
